# HIV Env fusion: inhibitors of HIV-1 Env-driven cell-cell fusion, primary screen, HeLa-JRFL effector, CEM21 target cells, luciferase. inhibition, % at 12.3 µM. hit rate 1.1% among 360,000. AID 651610, 2012;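 active = mean replicate inhibition score of at least 50 and every replicate individually at or above 50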;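 also: 0% = plate neutral controls and 100% = maraviroc near 300 nM; one replicate is shown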
# UUG fidelity: modulators of yeast start codon fidelity, primary screen, whole organism, S. cerevisiae, single point, plate reader. S. cerevisiae UUG-firefly luciferase reporter, luminescence/redox ratio. activity score, % at 18.7 µM. hit rate 0.13% among 350,000. AID 602363, 2012;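 active = replicate mean at a twofold rise or more, about +100% in these data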;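 also: firefly luciferase made from a UUG start codon reports start codon fidelity; reporter light over untreated wells divided by growth signal over untreated wells; some hits fall short of that in this replicate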
# Numbers without * were called inactive; & = joins results of further samples; [ ] = remark or other dose. Some of the compounds tested; rates above refer to the full screens.
SMILES,HIV Env fusion,UUG fidelity
C[C@@H]1CCCCO[C@@H](CN(C)C(=O)Cc2ccccc2)[C@H](C)CN([C@@H](C)CO)C(=O)c2cc(NS(=O)(=O)c3cn(C)cn3)ccc2O1,-4[16.7 µM],9
CNC[C@H]1Oc2ccc(NC(=O)Nc3ccc4c(c3)OCO4)cc2CC(=O)N([C@H](C)CO)C[C@H]1C,-4[16.7 µM],0
O=C(N[C@@H](Cc1ccccc1)Cn1cc(CN2C(=O)COC[C@H]2c2ccccc2)nn1)c1ccccc1,-24[16.7 µM],32
CO[C@@H]1CN(C)C(=O)c2ccc(NC(=O)NC(C)C)cc2OC[C@H](C)N(C(=O)NC(C)C)C[C@H]1C,11[16.7 µM],12
Cc1ccc(S(=O)(=O)Nc2ccc3c(c2)C(=O)N([C@@H](C)CO)C[C@@H](C)[C@@H](CN(C)C)OCCCC[C@H](C)O3)cc1,-62[16.7 µM],4
C[C@@H]1CN([C@@H](C)CO)C(=O)c2cc(NS(=O)(=O)c3ccccc3)ccc2O[C@H]1CN(C)C(=O)Nc1cccc2ccccc12,-17[16.7 µM],9
C[C@@H]1CN([C@@H](C)CO)C(=O)c2cc(NS(=O)(=O)c3cn(C)cn3)ccc2O[C@@H](C)CCCCO[C@H]1CN(C)S(=O)(=O)c1ccc(Cl)cc1,-3[16.7 µM],6
O=S(=O)(N[C@H]1CC[C@@H](CCn2cc(-c3cccnc3)nn2)O[C@@H]1CO)c1ccc(F)cc1,0[16.7 µM],-6
CNC[C@@H]1Oc2ncc(-c3cccc(F)c3)cc2C(=O)N([C@H](C)CO)C[C@@H]1C,-27&-13[16.7 µM],-2&15
CN1C(=O)c2cc(NC(=O)NCc3ccccc3)ccc2OC[C@H]2O[C@@H](CC(=O)O)CC[C@@H]21,-9[16.7 µM],-7

# Part of the list above, tab-delimited:
mol	HIV Env fusion	UUG fidelity
CN1C(=O)c2cc(NC(=O)NCc3ccccc3)ccc2OC[C@H]2O[C@@H](CC(=O)O)CC[C@@H]21	-9[16.7 µM]	-7
O=S(=O)(N[C@H]1CC[C@@H](CCn2cc(-c3cccnc3)nn2)O[C@@H]1CO)c1ccc(F)cc1	0[16.7 µM]	-6

# Additional structures:
SMILES,HIV Env fusion,UUG fidelity
Cc1ccc(S(=O)(=O)Nc2ccc3c(c2)C(=O)N([C@@H](C)CO)C[C@@H](C)[C@@H](CN(C)Cc2ccccc2)OCCCC[C@@H](C)O3)cc1,32[16.7 µM],13
Cc1ccc(S(=O)(=O)Nc2ccc3c(c2)C(=O)N([C@H](C)CO)C[C@H](C)[C@@H](CN(C)CC2CCCCC2)OCCCC[C@@H](C)O3)cc1,-46[16.7 µM],9
C[C@@H]1CCCCO[C@@H](CN(C)C(=O)CCCN(C)C)[C@H](C)CN([C@@H](C)CO)C(=O)c2cc(NC(=O)Nc3ccc(C(F)(F)F)cc3)ccc2O1,-9[16.7 µM],17
C[C@@H]1CN([C@@H](C)CO)S(=O)(=O)c2ccc(-c3ccc(F)cc3)cc2O[C@@H]1CN(C)C(=O)C1CCOCC1,10[16.7 µM],12
C[C@@H]1CN([C@H](C)CO)C(=O)c2cc(-c3ccc(F)cc3)cnc2O[C@H]1CN(C)C(=O)NC1CCCC1,2[16.7 µM],-6
CCCNC(=O)N1[C@@H](C#N)[C@H](c2ccccc2)[C@@H]1CO,-4[16.7 µM],12
C[C@@H]1CN([C@H](C)CO)C(=O)c2cccc(NC(=O)NC3CCCCC3)c2O[C@H]1CN(C)Cc1ccc(Cl)c(Cl)c1,7[16.7 µM],-2
CC(C)NC(=O)Nc1ccc2c(c1)C(=O)N(C)[C@@H]1CC[C@@H](CC(=O)NC3CCCCC3)O[C@H]1CO2,27[16.7 µM],2
Cc1ccc(S(=O)(=O)N(C)C[C@H]2Oc3ccc(NC(=O)Cc4ccccc4)cc3CC(=O)N([C@@H](C)CO)C[C@@H]2C)cc1,12[16.7 µM],24
CC(C)NC(=O)Nc1ccc2c(c1)C(=O)N([C@@H](C)CO)C[C@@H](C)[C@@H](CN(C)C(=O)Nc1cccc3ccccc13)OCCCC[C@@H](C)O2,7[16.7 µM],10

# Record cards, from the list above. Order of values: HIV Env fusion, UUG fidelity
# `C[C@@H]1CN([C@H](C)CO)C(=O)c2cc(-c3ccc(F)cc3)cnc2O[C@H]1CN(C)C(=O)NC1CCCC1` is entered as 2[16.7 µM], -6
# `CC(C)NC(=O)Nc1ccc2c(c1)C(=O)N(C)[C@@H]1CC[C@@H](CC(=O)NC3CCCCC3)O[C@H]1CO2` is entered as 27[16.7 µM], 2
# `C[C@@H]1CCCCO[C@@H](CN(C)C(=O)CCCN(C)C)[C@H](C)CN([C@@H](C)CO)C(=O)c2cc(NC(=O)Nc3ccc(C(F)(F)F)cc3)ccc2O1` is entered as -9[16.7 µM], 17
# `CC(C)NC(=O)Nc1ccc2c(c1)C(=O)N([C@@H](C)CO)C[C@@H](C)[C@@H](CN(C)C(=O)Nc1cccc3ccccc13)OCCCC[C@@H](C)O2` is entered as 7[16.7 µM], 10
# `C[C@@H]1CN([C@H](C)CO)C(=O)c2cccc(NC(=O)NC3CCCCC3)c2O[C@H]1CN(C)Cc1ccc(Cl)c(Cl)c1` is entered as 7[16.7 µM], -2

# Further records.
SMILES,HIV Env fusion,UUG fidelity
C[C@@H]1CCCCO[C@@H](CN(C)S(=O)(=O)c2ccccc2)[C@@H](C)CN([C@@H](C)CO)C(=O)c2cc(NC(=O)Nc3ccc(C(F)(F)F)cc3)ccc2O1,-1[16.7 µM],-15
CN1C(=O)c2cc(NC(=O)C3CC3)ccc2OC[C@@H]2O[C@@H](CC(=O)NCC3CCCCC3)CC[C@@H]21,-12[16.7 µM],-5
O=C(C[C@@H]1C=C[C@@H](NC(=O)Cc2ccccn2)[C@H](CO)O1)NCCc1ccccc1,-14[16.7 µM],-2
C[C@@H]1CN([C@@H](C)CO)C(=O)c2cc(NS(=O)(=O)c3cccs3)ccc2O[C@@H](C)CCCCO[C@@H]1CN(C)Cc1ccccc1,-79[16.7 µM],-17
COc1ccc(S(=O)(=O)N[C@H]2C=C[C@@H](CC(=O)N3CCN(c4ccccc4)CC3)O[C@H]2CO)cc1,-4[16.7 µM],-4
CO[C@@H]1CN(C)C(=O)c2cc(NC(=O)C3CCOCC3)ccc2OC[C@H](C)NC[C@H]1C,2[16.7 µM],-6
C[C@@H](NC(=O)C[C@H]1C[C@H]2c3cc(NC(=O)CN(C)C)ccc3O[C@H]2[C@H](CO)O1)c1ccccc1,9[16.7 µM],-3
C[C@H](O)C#Cc1cnc2c(c1)C(=O)N([C@H](C)CO)C[C@H](C)[C@H](CN(C)C(=O)Nc1ccc(C(F)(F)F)cc1)O2,17[16.7 µM],20
CC(C)C#Cc1ccc([C@@H]2[C@@H](C#N)N(C(=O)c3ccccn3)[C@@H]2CO)cc1,3[16.7 µM],3
C[C@H](CO)N1C[C@H](C)[C@@H](CN(C)Cc2ccncc2)OCCCC[C@H](C)Oc2ccc(NC(=O)Cc3ccccc3)cc2C1=O,11[16.7 µM],-2
C[C@H](CO)N1C[C@H](C)[C@@H](CN(C)Cc2ccccc2)Oc2ncc(Br)cc2C1=O,-7[16.7 µM],-6
CO[C@@H]1CN(C)C(=O)c2cc(NC(C)=O)ccc2OC[C@@H](C)N(C(=O)CC2CC2)C[C@H]1C,-4[16.7 µM],-10
C[C@@H]1CCCCO[C@H](CN(C)Cc2ccc(C(F)(F)F)cc2)[C@H](C)CN([C@H](C)CO)C(=O)c2cc(NS(=O)(=O)c3cn(C)cn3)ccc2O1,5[16.7 µM],5
Cc1noc(C)c1NC(=O)N(C)C[C@H]1Oc2ncc(C#CCC(C)C)cc2C(=O)N([C@H](C)CO)C[C@@H]1C,23[16.7 µM],11
CNC[C@@H]1OCCCC[C@H](C)Oc2ccc(NC(=O)c3ccccc3)cc2C(=O)N([C@H](C)CO)C[C@H]1C,-17[16.7 µM],4
C[C@H]1CN([C@@H](C)CO)C(=O)Cc2cc(NC(=O)Nc3cccc4ccccc34)ccc2O[C@@H]1CN(C)Cc1ccc(Oc2ccccc2)cc1,9[16.7 µM],-11
O=C(N[C@H]1CC[C@@H](CCn2cc(C3CC3)nn2)O[C@H]1CO)c1cccnc1,2[16.7 µM],0
C[C@@H]1CN([C@H](C)CO)C(=O)c2cc(NS(=O)(=O)c3ccc(F)cc3)ccc2O[C@H]1CN(C)C(=O)Nc1ccccc1,-31[16.7 µM],-3
C/C=C/c1cnc2c(c1)C(=O)N([C@@H](C)CO)C[C@H](C)[C@H](CN(C)C(=O)C1CC1)O2,-7[16.7 µM],-13
C[C@@H]1CN([C@@H](C)CO)C(=O)c2cc(-c3cccc(C#N)c3)cnc2O[C@@H]1CN(C)C(=O)C1CCC1,-3[16.7 µM],-6
O=C(C[C@H]1C[C@@H]2c3cc(NC(=O)Nc4ccc(C(F)(F)F)cc4)ccc3O[C@@H]2[C@@H](CO)O1)NCCc1ccccc1,21[16.7 µM],-2
C[C@H]1CCCCO[C@H](CN(C)C(=O)Nc2cccc3ccccc23)[C@@H](C)CN([C@@H](C)CO)C(=O)c2cc(NC(=O)C3CCCCC3)ccc2O1,50[16.7 µM],-7
C[C@@H]1CCCCO[C@H](CN(C)C(=O)C2CCCCC2)[C@@H](C)CN([C@H](C)CO)C(=O)c2cc(NC(=O)c3ccncc3)ccc2O1,2[16.7 µM],-2
O=C(C[C@@H]1C[C@@H]2c3cc(NC(=O)C4CCC4)ccc3O[C@@H]2[C@@H](CO)O1)NCc1ccc(-c2ccccc2)cc1,43[16.7 µM],-10
O=C(C[C@@H]1CC[C@H]2[C@@H](COC[C@@H](O)CN2C(=O)Nc2ccc(Cl)c(Cl)c2)O1)NC1CCC1,6[16.7 µM],6
C[C@H]1CN([C@@H](C)CO)C(=O)c2cc(C#CC3(O)CCCC3)cnc2O[C@H]1CN(C)C(=O)CC1CC1,5[16.7 µM],6
C[C@@H]1CN([C@H](C)CO)C(=O)c2cc(Br)cnc2O[C@@H]1CN(C)S(=O)(=O)c1ccccc1,38[16.7 µM],2
C[C@@H]1CCCCO[C@@H](CN(C)Cc2ccc3c(c2)OCO3)[C@@H](C)CN([C@@H](C)CO)C(=O)c2cc(NC(=O)CCCN(C)C)ccc2O1,-16[16.7 µM],7
C[C@H]1CCCCO[C@H](CN(C)Cc2ccc(C(=O)O)cc2)[C@@H](C)CN([C@@H](C)CO)C(=O)c2cc(NC(=O)Nc3ccccc3)ccc2O1,-23[16.7 µM],31
CC(C)CC#Cc1ccc2c(c1)O[C@H](CN(C)C(=O)c1cccnc1)[C@H](C)CN([C@H](C)CO)S2(=O)=O,8[16.7 µM],-8
COCC#Cc1cnc2c(c1)C(=O)N([C@H](C)CO)C[C@@H](C)[C@@H](CN(C)C)O2,-21[16.7 µM],-3
C[C@@H]1CN([C@H](C)CO)S(=O)(=O)c2ccc(C#Cc3cccnc3)cc2O[C@@H]1CN(C)CC1CCOCC1,-27[16.7 µM],-20
CCOC(=O)C1=CC[C@@H](c2ccc(OC)cc2)[C@@H]1C(=O)c1ccccc1,-6[16.7 µM],-11
C[C@@H]1CN([C@@H](C)CO)C(=O)Cc2cc(NC(=O)C3CCCCC3)ccc2O[C@@H]1CN(C)Cc1ccncc1,7[16.7 µM],-10
C[C@@H]1CN([C@H](C)CO)C(=O)c2cc(NS(=O)(=O)c3ccc(F)cc3)ccc2O[C@H]1CN(C)C(=O)Nc1ccc(F)cc1,-9[16.7 µM],4

# Assay outcomes: PubChem BioAssay, Broad Institute
